# Measles inh – inhibitors of measles virus growth in infected cells; infected Vero cells, GFP fluorescence, 64 h; stronger effect = lower value; z-score (no concentration beside the values); 0.1% of 33,000 active; AID 745;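 active = z-score under -3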;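 also: score is relative to mean and SD of the compound wells of a plate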
# Numbers without * were called inactive. An excerpt (hit frequency here may not be typical).
Measles inh | mol
-0.14 | COC(=O)c1ccc(N2C(=O)CC(NCCN3CCOCC3)C2=O)cc1 (centres undefined)
-0.51 | CCN1CCN(C(=O)Cn2cnc3sc(C)c(S(=O)(=O)N4CCC(C)CC4)c3c2=O)CC1
0.46 | CCOC(=O)c1ccccc1NC(=O)C(C)Oc1ccccc1 (centres undefined)
-0.01 | COc1ccc(-c2cc(C(F)(F)F)nc(-n3cc(Cl)cn3)n2)cc1
-0.37 | O=C(NCc1ccccc1Cl)C1CCN(S(=O)(=O)N2CCCCCC2)CC1
0.01 | COc1ccccc1NC(=O)c1c(NC(=O)c2ccccc2F)sc(-c2ccccc2)c1C
-0.24 | COc1ccccc1NS(=O)(=O)c1ccc(NC(=O)c2ccc3c(c2)c(C)c(C)n3C)cc1
-0.23 | Fc1ccccc1-c1ncc2ccccn12
1.91 | C=CCNS(=O)(=O)c1ccc(OC)c2ncccc12
1.4 | Cc1cc(N2CCN(C)CC2)nc2ccc(NC(=O)C3CCC(C)CC3)cc12 (centres undefined)
-0.48 | COc1cc(OC)c(C2CC(=O)Nc3cc4c(cc32)OCO4)cc1OC (centres undefined)
-0.69 | COCCOC(=O)c1[nH]c2c(c1C)C(=O)CC(c1ccc(C(C)(C)C)cc1)C2 (centres undefined)
-0.14 | Cc1ccc2oc(C(F)(F)F)cc(=O)c2c1[N+](=O)[O-]
-0.43 | COc1cccc(N2C(=O)CC(NCc3ccc(S(N)(=O)=O)cc3)C2=O)c1 (centres undefined)
0.92 | O=C(CSc1cn(Cc2ccc(Cl)cc2)c2ccccc12)N1CCCCCC1
-1.03 | COc1ccc(NC(=O)c2cc3n(n2)C(C(F)(F)F)CC(c2ccc4c(c2)OCO4)N3)cc1Cl (centres undefined)
2.27 | O=C(CN1CCN(Cc2ccccc2F)C1=O)NCc1cccnc1
0.88 | COc1ccc(OC)c(NC(=O)CCS(=O)(=O)c2ccc(Br)s2)c1
-0.09 | CC1CCCC(NC(=O)CN2C(=O)CSc3ccc(S(=O)(=O)N4CCCC4)cc32)C1C (centres undefined)
-1.21 | CCOC(=O)c1c(NC(=O)CCC(=O)O)sc2c1CCN(C)C2
0.14 | O=C(CCN1C(=O)c2ccccc2C1=O)Oc1ccc(C(=O)O)cc1
1.13 | COCCNC(=O)c1ccc2c(c1)N(Cc1ccccc1F)C(=O)CS2
-0.67 | O=C(CSc1ncnc2c1c(-c1ccccc1)cn2-c1ccc(F)cc1)c1ccccc1
0.9 | CCOC(=O)c1nn(-c2ccc3c(c2)OCCO3)cc1O
0.72 | O=C(NC1CCCCC1)c1ccc(CS(=O)c2ccccc2)o1 (centres undefined)
-0.17 | C=CCn1c(=S)[nH]c2scc(-c3ccc(Cc4ccccc4)cc3)c2c1=O
-1.18 | Nc1c(S(=O)(=O)Cc2ccccc2)sc2nc3c(cc12)CCCC3
-1.96 | Cc1nnc(N2C(=O)C(=O)/C(=C(/O)c3ccc(F)cc3)C2c2ccc(Br)cc2)s1 (centres undefined)
-1.36 | COC(=O)C1C(=O)C2=C(CC1C)NC(C)=C(C(=O)OC1CCCCCC1)C2c1ccc(N(C)C)cc1 (centres undefined)
1.65 | O=[N+]([O-])c1cccc(-c2nnc3cccc(Cl)n23)c1
-0.16 | CCOc1ccc(C2Nc3ccccc3NC3=C2C(=O)CC(C)(C)C3)cc1 (centres undefined)
1.09 | Cc1nc2cc(CO)ccc2n1-c1ccccc1
-0.15 | CCSCCOC(=O)C1=C(C)NC2=C(C(=O)CC(c3ccccc3)C2)C1c1ccc(N(C)C)cc1 (centres undefined)
-0.22 | CC(C(=O)Oc1ccc(C(C)(C)C)cc1)N1C(=O)c2ccccc2C1=O (centres undefined)
-1.18 | COC(=O)C1=CN(C(C)C)C=C(C(=O)OC)C1c1ccc(Cl)cc1
-1.3 | Ic1cccc(-c2nc(-c3cccnc3)no2)c1
0.16 | Cc1ccc(NC(=O)c2c(C)nc3sc(C(=O)NCc4ccco4)c(N)c3c2-c2cccs2)c(C)c1
-0.36 | Cc1ccc(S(=O)(=O)N2CCCC(C(=O)NC3CCCc4ccccc43)C2)cc1 (centres undefined)
-0.97 | COC(=O)c1ccc(CSc2ccccc2C)o1
1.35 | O=C(Nc1ccccn1)c1c(O)c2cccc3c2n(c1=O)CCC3
-1.2 | CCN1C(=O)c2cccc3c(S(=O)(=O)Nc4ccccc4)ccc1c23
0.3 | Clc1ccc(CSc2nnc(COc3ccccc3)o2)cc1
0.81 | Cc1nnc(SCCC(=O)Nc2ccc(F)cc2)s1
0.21 | CCCCCCSc1nnc2c(n1)OC(c1cccnc1)Nc1ccccc1-2 (centres undefined)
-0.44 | Cc1ccc(OCCC(=O)O)cc1
-0.21 | CC(=O)N1c2ccccc2NC2=C(C(=O)CCC2)C1c1ccc(F)cc1 (centres undefined)
-1.52 | CC(=O)Nc1ccccc1C(=O)C(=O)Nc1cccc(C(=O)N2CC(C)CC(C)C2)c1 (centres undefined)
0.14 | C=CCNC(=O)c1scc2c1CCCC2
-1.59 | CCCC1=C(C(=O)OCC)C(c2cccc([N+](=O)[O-])c2)NC(=O)N1 (centres undefined)
-1.81 | COc1ccc(CNC(=O)c2nn3c(c2Br)NC(c2cccs2)CC3C(F)(F)F)cc1 (centres undefined)

# Next structures:
Measles inh | mol
0.45 | Cc1ccc(C2=NN(C(=O)c3cccnc3)C(c3ccccc3F)C2)cc1 (centres undefined)
0.72 | CCOC(=O)c1c(NC(=O)c2ccc([N+](=O)[O-])cc2Cl)sc2c1CCC(CC)C2 (centres undefined)
-0.8 | CC1CCN(C(=O)Cn2ccc3ccccc3c2=O)CC1
-0.97 | COCCOC(=O)C1=C(C)NC2=C(C(=O)C(C(=O)OC)C(C)C2)C1c1coc2ccc(C)cc2c1=O (centres undefined)
0.94 | COC(=O)c1[nH]c2c(c1C)C(=O)CCC2
0.31 | Cc1ccc(C)c(Nc2cc(Cl)c3nonc3c2[N+](=O)[O-])c1
-0.04 | CC(C)c1cc(NCCc2ccccc2)n2c(nc3ccccc32)c1C#N
0.22 | O=c1[nH]c2cc3ccccc3cc2nc1-c1ccccc1NCc1ccccc1
-0.82 | COc1ccc(-c2cc3nc(C)cc(C)n3n2)cc1
0.86 | COc1cc(NC(=O)Cn2c(=S)[nH]c3ccccc3c2=O)cc(OC)c1OC

# Sorted by value in Measles inh (smallest number first): four from the list above
Measles inh | mol
-0.97 | COCCOC(=O)C1=C(C)NC2=C(C(=O)C(C(=O)OC)C(C)C2)C1c1coc2ccc(C)cc2c1=O (centres undefined)
-0.8 | CC1CCN(C(=O)Cn2ccc3ccccc3c2=O)CC1
0.72 | CCOC(=O)c1c(NC(=O)c2ccc([N+](=O)[O-])cc2Cl)sc2c1CCC(CC)C2 (centres undefined)
0.94 | COC(=O)c1[nH]c2c(c1C)C(=O)CCC2

# More structures follow.
Measles inh | mol
1.09 | CCOC(=O)C1=C(C)N(c2ccccc2)C(=O)C1
0.79 | Cc1cc(NC(=O)c2cccnc2)ccc1-c1cc2ccccc2oc1=O
-0.08 | Cc1ccc(-c2nc3ncccc3o2)cc1NC(=O)c1ccc(F)cc1
1.4 | Cc1ccc(NC(=O)c2c(C)nc3sc(C(=O)NC4CCCC4)c(N)c3c2-c2ccc(C)o2)c(C)c1
0.53 | CC(=O)N1CCCc2cc(S(=O)(=O)NC3CCCCCC3)ccc21
2.74 | Cc1ccc(S(=O)(=O)Nc2ccc(-c3cn4ccccc4n3)cc2)cc1[N+](=O)[O-]
-0.02 | Cc1ccc(NC(=O)CSc2nccn2-c2ccc([N+](=O)[O-])cc2)c(C)c1
7.08 | O=C1c2cccc3c(O)ccc(c23)C(=O)N1CCc1c[nH]c2ccccc12
2.73 | O=C1c2ccc(Br)cc2C(=O)N1c1ccccc1O
0.69 | O=C(Nc1ccc2c(c1)CCC2)c1cc(-c2ccncc2)nc2ccccc12
0.35 | O=C(CC1(O)C(=O)Nc2ccccc21)c1ccco1 (centres undefined)
1.72 | O=C(CNS(=O)(=O)c1cccs1)NCc1ccc(Cl)cc1
-1.83 | CCCCSc1nc2c(c(=O)n1-c1ccc([N+](=O)[O-])cc1)SCC2
-1.82 | NC(=O)C1CCN(c2ncnc3c2c(-c2ccccc2)cn3-c2ccc(Cl)cc2)CC1
0.15 | CC1CN(S(=O)(=O)c2ccc(NC(=O)CCCN3C(=O)c4ccccc4C3=O)cc2)CC(C)O1 (centres undefined)
0.77 | COc1ccccc1C(=O)N1CCc2ccccc21
0.34 | COC(=O)c1ccc(Sc2ccc(C)cc2)c([N+](=O)[O-])c1
-0.63 | COc1c(Cl)c(Cl)nc(Cl)c1C(N)=O
1.03 | COCCOC(=O)c1c(C)oc2ccc(OCc3ccc(Br)cc3)cc12
-0.4 | Nc1ccnc(C(F)(F)F)c1C(=O)c1ccccc1
-1.93 | CCOc1ccc2c(C)nc(NC3=NC(C)(C)C=C(C)N3)nc2c1
0.97 | CCn1c(N2CCCCC2)nc2c1c(=O)[nH]c(=O)n2C
-0.62 | O=C(Nc1ccc(F)cc1)c1cnc2n(c1=O)CCS2
-1.02 | Cc1ccccc1OCc1nc2c3c(-c4ccccc4)c(-c4ccccc4)oc3ncn2n1
1.23 | COCCNC(=O)Nc1ccc2snnc2c1
-1.65 | CCOC(=O)C(C(=O)Nc1ccc(Br)cc1)C1CCCCC1 (centres undefined)
-0.26 | O=C1CC(=O)N2C=CC=CC2=N1
2.36 | COC(=O)C1C(=O)c2c([nH]c(C(=O)OC3CCCC3)c2C)CC1C (centres undefined)
-0.68 | COC(=O)C1=CN(c2cccc(C(F)(F)F)c2)C=C(C(=O)OC)C1c1ccsc1
-0.75 | COc1nc(Nc2ccc(OC(F)(F)Cl)cc2)nc(N2CCOCC2)n1
-0.52 | CCCCc1ccc(NC(=O)CSc2nc3c(c(=O)n2C)SC(C)C3)cc1 (centres undefined)
0.02 | CCN(CC)c1ccc(C(=O)Nc2ccc3nc(N(CC)CC)cc(C)c3c2)cc1
-0.98 | O=C(Nc1ccccc1)c1cc(S(=O)(=O)N2CCCc3ccccc32)cs1
-1.41 | COc1ccc(C2=NN(c3ccccc3)C(c3ccc(OC)cc3)C2)cc1 (centres undefined)
0.25 | CCCOc1ccc(C(=O)NCC2OCCc3ccccc32)cc1 (centres undefined)
1.41 | O=C(O)c1cc(N2C(=O)c3ccc([N+](=O)[O-])cc3C2=O)cc(N2C(=O)c3ccc([N+](=O)[O-])cc3C2=O)c1
-0.35 | C=CCSc1nc2c(c(=O)[nH]1)C(C)(C1CCCCC1)Cc1ccccc1-2 (centres undefined)
-0.51 | O=S1(=O)CCC(NC2CCCCC2)C1 (centres undefined)
-0.01 | Cc1c(C)n(C)c2ccc(C(=O)Nc3ccccc3C(N)=O)cc12
1.67 | CCOC(=O)c1c(C)[nH]c(C(=O)CSc2nnc3sc4ccccc4n23)c1C

# A different layout for part of the listing above:
Molecule | Measles inh
C=CCSc1nc2c(c(=O)[nH]1)C(C)(C1CCCCC1)Cc1ccccc1-2 (centres undefined) | -0.35
O=S1(=O)CCC(NC2CCCCC2)C1 (centres undefined) | -0.51
Cc1c(C)n(C)c2ccc(C(=O)Nc3ccccc3C(N)=O)cc12 | -0.01

# (list continues)
Measles inh | mol
-1.51 | O=C(NCCc1ccccc1)C1c2ccccc2C(=O)N1Cc1cccs1 (centres undefined)
0.61 | COc1cccc2cc(C(=O)NC(C)=O)c(=Nc3ccc(F)cc3)oc12
-0.63 | O=C(Nc1nc(-c2ccc3c(c2)OCO3)cs1)c1cc(=O)c2ccccc2o1
-0.07 | COC(=O)C1C(=O)C2=C(CC1C)NC(C)=C(C(=O)OC(C)C)C2c1cc(OC)c(OC)cc1OC (centres undefined)
-0.65 | O=C(Nc1ccc2oc(-c3cccc(Br)c3)nc2c1)c1ccccc1
-0.13 | COCCOC(=O)c1c(C)oc2ccc(OC(=O)C(C)C)cc12
-0.36 | O=C1c2ccccc2C(=Cc2cccs2)c2ccccc21
0.02 | Cc1c(C=Nc2ccccc2[N+](=O)[O-])c(=O)n2c([nH]c3ccccc32)c1C#N
0.73 | COC(=O)c1ccccc1-n1c(CCC(=O)O)ccc1-c1ccccc1
0.28 | COc1ccc(N(C)S(=O)(=O)c2ccc3nc(-c4ccccc4)[nH]c3c2)cc1

# Exported as tab-separated lines: entries from further up.
Structure	Measles inh
CCOC(=O)c1c(C)[nH]c(C(=O)CSc2nnc3sc4ccccc4n23)c1C	1.67
O=C(NCCc1ccccc1)C1c2ccccc2C(=O)N1Cc1cccs1 (centres undefined)	-1.51
COc1cccc2cc(C(=O)NC(C)=O)c(=Nc3ccc(F)cc3)oc12	0.61
O=C(Nc1nc(-c2ccc3c(c2)OCO3)cs1)c1cc(=O)c2ccccc2o1	-0.63
COC(=O)C1C(=O)C2=C(CC1C)NC(C)=C(C(=O)OC(C)C)C2c1cc(OC)c(OC)cc1OC (centres undefined)	-0.07
O=C(Nc1ccc2oc(-c3cccc(Br)c3)nc2c1)c1ccccc1	-0.65
COCCOC(=O)c1c(C)oc2ccc(OC(=O)C(C)C)cc12	-0.13

# Other records.
Measles inh | mol
1.31 | CCOC(=O)c1sc2ccc(S(=O)(=O)N3CC(C)CC(C)C3)cc2c1N (centres undefined)
0.07 | COc1ccc(CNC(=O)CC#N)cc1
2.04 | O=C(Nc1ccc(S(=O)(=O)Nc2ncccn2)cc1)c1ccc(Br)cc1
-0.17 | CC(=O)N1c2c(cc(Br)cc2S(=O)(=O)Nc2ccc(Br)c(C)c2)CC1C (centres undefined)
-0.8 | O=S1(=O)C=C(Sc2nnnn2-c2ccccc2)c2ccccc21
-0.12 | CC(=O)C1C(c2ccc(O)cc2)NC(=O)NC1(O)C(F)(F)F (centres undefined)
-1.09 | COc1cccc2c1OC1(C)CC2NC(=O)N1c1cccc(C(=O)N2CCN(c3cccc(Cl)c3)CC2)c1 (centres undefined)
-0.68 | O=C1c2cccc([N+](=O)[O-])c2C(=O)N1c1cc([N+](=O)[O-])ccc1F
-2.29 | O=C(CCS(=O)(=O)c1ccc(Br)s1)Nc1cc(C(F)(F)F)cc(C(F)(F)F)c1
-0.4 | Fc1ccc(C2=CC(c3ccccc3OC(F)F)n3nnnc3N2)cc1 (centres undefined)
0.2 | COC(=O)c1ccccc1NC(=O)C1(S(=O)(=O)c2ccc(C)cc2)CC1
0.83 | C=CCn1c(SCC(=O)N2CCN(CCO)CC2)nc2sc3c(c2c1=O)CCC3
1.21 | CC1=CC(=CN(C)c2ccccc2)C(=O)S1
-0.39 | CC1(C)CC(=O)C2=C(C1)OC1=C(C(=O)CC(C)(C)C1)C2c1ccc(C(=O)O)cc1
1.06 | COc1ccccc1NC(=O)c1[nH]ncc1[N+](=O)[O-]

# Assay outcomes (PubChem)
